# Screening data deposited in PubChem BioAssay by several laboratories.
# GALR2 ag = GALR2 receptor agonists, primary screen, cell-based; activation, %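 (tested at 5 µM)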; 0.48% of 140,000 active; GALR2-expressing cells, agonist activation read-out; Galanin receptor type 2 (Homo sapiens), O43603;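 active = above mean plus 3 SD of all compounds, about 5% in these data, not always enough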;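 also: 0% = vehicle buffer wells and 100% = reference agonist at full effect; tested in CHO reporter cells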
# Target sequence (O43603 whole entry, looked up): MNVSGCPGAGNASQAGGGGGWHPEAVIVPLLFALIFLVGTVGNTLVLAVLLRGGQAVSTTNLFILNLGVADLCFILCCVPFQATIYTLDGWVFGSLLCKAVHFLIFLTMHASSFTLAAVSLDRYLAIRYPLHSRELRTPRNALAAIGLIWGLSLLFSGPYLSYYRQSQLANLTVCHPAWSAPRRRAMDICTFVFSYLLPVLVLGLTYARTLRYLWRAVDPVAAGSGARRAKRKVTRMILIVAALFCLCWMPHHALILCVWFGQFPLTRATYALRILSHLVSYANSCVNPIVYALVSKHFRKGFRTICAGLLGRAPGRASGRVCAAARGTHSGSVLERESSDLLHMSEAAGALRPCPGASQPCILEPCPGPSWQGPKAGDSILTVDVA
# PKD1 inh = inhibitors of human PKD1 kinase, biochemical, fluorescence polarization | AID 797, 2007 | PKD1 kinase fluorescence polarization assay | 0.056% of 200,000 active | Serine/threonine-protein kinase D1 (Homo sapiens), Q15139 | inhibition, %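 (about 10 µM by stock and volumes)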;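 active = inhibition of 50% or more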;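 also: controls were vehicle for no effect and a reference inhibitor for full effect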
# RGS16-Gao HTS = modulators of RGS16 binding to Galphao, primary screen, biochemical, human proteins, multiplexed bead flow cytometry. bead-based flow cytometry RGS16-Galphao binding, fluorescence; actives lie on both sides. binding response (% of control), % at 10 µM. 0.38% of 220,000 active;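 active = below 25% or above 175%, edge rows of some plates excepted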;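 also: Galphao activated by GDP with aluminum fluoride before binding; 100% = wells without compound and 0% = beads without RGS; some results beyond the cut were filed as inactive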
# Target sequence (O15492 whole entry, looked up): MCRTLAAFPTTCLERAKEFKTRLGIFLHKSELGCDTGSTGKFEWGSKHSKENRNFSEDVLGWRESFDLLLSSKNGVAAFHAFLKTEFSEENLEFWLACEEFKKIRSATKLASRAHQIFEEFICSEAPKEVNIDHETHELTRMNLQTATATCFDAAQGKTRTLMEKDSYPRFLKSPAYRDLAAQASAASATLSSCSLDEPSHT
# Target sequence (P09471 whole entry, looked up): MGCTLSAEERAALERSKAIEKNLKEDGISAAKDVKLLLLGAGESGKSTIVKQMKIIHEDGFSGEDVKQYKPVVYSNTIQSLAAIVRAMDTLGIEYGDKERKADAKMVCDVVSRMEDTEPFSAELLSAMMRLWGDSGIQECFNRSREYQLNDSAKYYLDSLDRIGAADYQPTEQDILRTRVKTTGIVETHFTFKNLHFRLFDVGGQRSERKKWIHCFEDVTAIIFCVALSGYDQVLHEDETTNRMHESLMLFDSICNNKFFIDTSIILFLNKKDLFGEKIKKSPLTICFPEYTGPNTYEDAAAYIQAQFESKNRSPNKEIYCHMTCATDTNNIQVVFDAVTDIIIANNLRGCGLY
# Insulin prom inh = inhibitors of insulin promoter-driven GFP, primary screen, imaging, TRM-6 cells (human fetal islet line), eGFP reporter, cell count; reporter expression induced with tamoxifen; inhibition, % at 2 µM; 0.9% of 130,000 active;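 active = inhibition above the mean plus 3 SD, with well images judged a real hit on visual review, cut at about 60% in these data, passing the limit was not always enough; inconclusive = inhibition over the cutoff but images rejected on review; inactive = inhibition not above the cutoff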
# HSV replic up = enhancers of HSV replication in host cells, fold increase, host cell viability. HSV replication augmentation in cells. maximum fold increase. 0.005% of 220,000 active. AID 1956, 2009;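 active = peak rise of 1.5-fold or more in the series; inconclusive = self-fluorescent or not available for retest; tested in PC3 cells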;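 also: first round at 10 µM; read as green reporter fluorescence; hits show the peak of a series up to 25 µM; 1 = signal of infected wells without compound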
# Insulin prom inh cell count = recorded beside Insulin prom inh, whose call it bears; normalized cell count, %; measured here: cell count, toxicity; reference of the scale not given here;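 cells exposed to compound for 48 h; stained nuclei by imaging scaled within each plate; lower means fewer cells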
# HSV replic up primary fold = second read-out of HSV replic up, no call of its own (marks repeat the call); fold increase; compound at 10 µM; measured here: primary screen fold increase 10 uM; tested in PC3 cells;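 GFP signal in the first replicate; 1 = infected wells without compound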
# Active calls of the source: *; i = inactive; ? = inconclusive; · = not tested or not shown. Hits appear at their usual frequency; overall some 1.2% were active at least once.
Molecule	GALR2 ag	PKD1 inh	RGS16-Gao HTS	Insulin prom inh	Insulin prom inh cell count	HSV replic up	HSV replic up primary fold
CC1(C(=O)O)Sc2[nH]c(=O)sc2C2c3ccccc3OC(=O)C21 (stereo unspecified)	-1.0	-0.2	98.3	-3.2	75.8	i	1.01
CC1Cc2ccccc2N1c1ncnc2c1nnn2Cc1ccccc1 (stereo unspecified)	-0.1	40.8	89.9	·	·	i	1.17
O=C(COc1ccccc1Cl)NCCCN1CCOCC1	-1.5	-11.0	100.2	0.0	98.6	i	0.923
Cc1occc1C(=O)NC1CCCCCC1	-1.4	-5.2	105.0	·	·	i	1.01
CCOc1ccc(C(CC(=O)O)NC(=O)C2c3ccccc3Oc3ccccc32)cc1 (stereo unspecified)	0.2	-5.5	110.5	·	·	i	1.01
O=C(COC(=O)CN1C(=O)C2CCCCC2C1=O)Nc1ccc(S(=O)(=O)N2CCOCC2)cc1 (stereo unspecified)	-1.7	3.9	103.6	16.9	94.3	i	0.92
CCCCC(=O)Nc1ccc2c(c1)nc(CCN1CCN(C)CC1)n2C	·	·	93.2	·	·	i	1.11
COc1ccc(S(=O)(=O)N2CCC(NC(=O)N3CCOCC3)CC2)cc1	·	0.7	90.6	·	·	i	1.11
Cc1noc(C)c1COC(=O)C1CC(O)CN1S(=O)(=O)c1ccc(Cl)cc1 (stereo unspecified)	0.8	-1.1	101.0	0.0	79.2	i	1.01
CC1(C)Cc2c(C#N)c(NCCCO)nc(-c3ccccc3)c2CO1	-0.9	-10.4	107.2	·	·	i	0.79
Cc1nc(NC(=O)CSc2nnc(Cn3nnc4ccccc43)n2C)sc1C	-0.8	3.7	140.5	·	·	i	0.92
COC(=O)c1sc2ncccc2c1OCc1c(Cl)cccc1Cl	-0.8	4.2	96.9	·	·	i	0.93
CCCCOc1ccc(CSCCNC(=S)Nc2ccccc2)cc1	-0.9	2.1	101.8	·	·	i	0.85
COC(=O)N(NC(=O)C(O)(CCC(C)C)CCC(C)C)c1ccccc1	-3.1	-4.2	103.0	-87.5	83.8	i	0.89
CN(C)CC(O)CN1C(=O)NC(C)(C)C1=O (stereo unspecified)	·	-11.6	102.2	·	·	i	0.83
COc1ccc(N2CCN(CC(O)COCc3ccccc3)CC2)cc1 (stereo unspecified)	·	1.9	101.0	·	·	i	0.95
CCOC(=O)c1c(N)sc(C(N)=O)c1C	-1.7	11.0	93.1	·	·	i	1.07
COCC(=O)Nc1cc(Cl)c(OC)cc1OC	-1.2	5.6	105.8	·	·	i	0.85
COc1ccc(-n2nc(C(=O)NCC(=O)NCc3ccco3)c3ccccc3c2=O)cc1	-0.4	4.8	94.6	7.1	88.0	i	1.13
O=C(c1ccncc1)c1ccc(NC(=O)c2cccs2)cc1	·	-1.0	102.2	20.0	48.4	i	0.95

# Arranged by heavy-atom count (ascending): some entries from above.
Molecule	GALR2 ag	PKD1 inh	RGS16-Gao HTS	Insulin prom inh	Insulin prom inh cell count	HSV replic up	HSV replic up primary fold
COC(=O)c1sc2ncccc2c1OCc1c(Cl)cccc1Cl	-0.8	4.2	96.9	·	·	i	0.93
COc1ccc(N2CCN(CC(O)COCc3ccccc3)CC2)cc1 (stereo unspecified)	·	1.9	101.0	·	·	i	0.95
O=C(COC(=O)CN1C(=O)C2CCCCC2C1=O)Nc1ccc(S(=O)(=O)N2CCOCC2)cc1 (stereo unspecified)	-1.7	3.9	103.6	16.9	94.3	i	0.92

# Further compounds.
Molecule	GALR2 ag	PKD1 inh	RGS16-Gao HTS	Insulin prom inh	Insulin prom inh cell count	HSV replic up	HSV replic up primary fold
O=C(c1cccs1)N1CCc2c([nH]c3ccccc23)C1c1ccc(Cl)cc1 (stereo unspecified)	0.1	0.6	110.0	44.4	142.1	i	0.88
Cc1nnc(-c2cnn(-c3ccccc3)c2N)n1Cc1ccccc1	-4.9	-15.6	101.1	14.3	151.3	i	0.85
Cn1c(C(N)=O)cnc1Sc1ncc(C(F)(F)F)cc1Cl	-1.6	2.8	104.5	-10.0	119.1	i	0.94
COC(=O)COc1ccc(-c2ccccc2)cc1C=O	·	2.7	141.4	53.9	98.7	·	·
CCn1c(CNc2ccc(OC)cc2)nnc1SCC(=O)N1CCCc2ccccc21	0.0	-3.4	100.3	·	·	i	1.02
CCn1c(C)cc2c(c1=O)C(c1ccccc1Br)C(C#N)=C(N)O2 (stereo unspecified)	-1.4	-4.7	99.5	·	·	i	0.96
COc1ccc(C2C(C(=O)N3CCN(c4ccccc4F)CC3)c3ccccc3C(=O)N2C)cc1 (stereo unspecified)	0.4	3.4	151.5	34.2	104.7	i	0.8
CCN(Cc1ccncc1)C(=S)Nc1ccc(Cl)cc1	·	-1.8	102.0	·	·	i	1.04
CC(=O)Nc1cccc(C(=O)N/N=C/c2ccccc2F)c1	-0.3	3.6	97.9	24.1	75.1	i	0.97
CCOC(=O)c1cc2c(N)c(C(=O)c3cc(C#N)c(SC)nc3C)sc2nc1C	-2.1	-4.0	105.4	·	·	i	0.73
Cc1nc2c(cnn2-c2ccccc2)c(=O)n1/N=C/c1ccccc1	·	·	90.7	·	·	i	0.79
COc1ccc(-c2nnc(SCc3nnc(-c4ccc(Cl)cc4)o3)n2-c2ccccc2)cc1	-0.5	0.4	102.0	-18.4	159.7	i	0.91
Cc1ccc(NC(=O)Cn2c(/C=C/c3ccccc3)nc3ccccc32)cc1C	8.2	16.6	538.3	26.7	43.6	i	0.85
CC(C)n1c(SCCCc2ccccc2)nc2c1c(=O)[nH]c(=O)n2C	-0.5	-20.7	97.7	·	·	i	0.96
Nc1nc(N)c(N=Nc2ccc(SCC(=O)O)cc2)c(=O)[nH]1	·	·	101.1	·	·	i	1.16
NC(=O)CSc1nnnn1-c1ccc2c(c1)OCCO2	-1.9	-1.4	107.6	19.1	83.2	i	0.99
CC1(C)CC2(CCO1)C(Nc1ccccc1)=NC(=S)N2c1ccccc1 (stereo unspecified)	·	·	103.3	·	·	i	1.25
Cc1nnc(SCC(=O)N2CCC(c3noc4ccc(F)cc34)CC2)s1	-1.4	-9.9	107.0	-280.0	92.3	i	0.75
CN(C)CCN1C(=O)C(O)=C(C(=O)c2cc3ccccc3o2)C1c1ccccn1 (stereo unspecified)	-3.6	-1.6	102.5	-5.6	107.6	·	·
CCN(CC)S(=O)(=O)c1ccc(S(=O)(=O)Nc2ccc3c(c2)oc2ccccc23)cc1	-2.0	-5.0	102.0	·	·	i	0.78

Molecule	GALR2 ag	PKD1 inh	RGS16-Gao HTS	Insulin prom inh	Insulin prom inh cell count	HSV replic up	HSV replic up primary fold
CCOC(=O)c1cc(-c2ccccc2)n(CCC(=O)N2CCN(c3ccccc3OC)CC2)c1C	-0.6	-11.9	113.4	-23.3	102.5	i	0.81
Cc1ccc(S(=O)(=O)NCCCOC(=O)Nc2ccncc2)cc1	-1.4	1.4	105.0	·	·	i	1
Cc1nc([N+](=O)[O-])c(C(=O)OCc2ccccc2C#N)n1C	·	-3.0	102.2	-20.0	95.1	i	0.89
COC(=O)c1ccccc1NC(=O)C(C)NS(=O)(=O)c1ccc(OC)cc1 (stereo unspecified)	-2.8	-0.6	105.0	-400.0	64.5	i	1.12
C=C(C)COc1ccc(-c2[nH]ncc2Oc2ccc(OC)cc2)c(O)c1	·	·	103.4	·	·	i	0.76
CCOCCCNCc1ccc(OCCC(C)C)c(OC)c1	·	0.8	101.3	·	·	i	0.92
NCC/C=C1/c2ccccc2CSc2ccccc21	-0.8	-1.9	·	-42.9	85.7	i	0.93
CS(=O)(=O)N(CCc1ccccc1)CC(=O)NCc1ccccc1Cl	·	-3.4	98.6	-50.0	152.2	i	1.05
Cc1onc(-c2c(Cl)cccc2Cl)c1C(=O)NCC1CCCO1 (stereo unspecified)	0.2	-3.5	102.1	-52.8	228.6	i	0.94
Cc1ccc2nc3c(c(C(=O)OCC(=O)N(C)C4CCS(=O)(=O)C4)c2c1)CCCC3 (stereo unspecified)	·	-3.3	104.0	0.0	101.3	i	1.08
O=C(Cn1nnc(-c2ccccc2F)n1)NCCc1ccccc1	-0.6	-8.8	104.4	·	·	i	0.95
CCc1ccccc1NC(=S)N(CCN(C)C)Cc1cccs1	·	-3.6	101.6	-6.7	144.2	i	0.96
Cc1cc(/C=C(\C#N)C(=O)NCc2ccco2)c(C)n1C1CCCC1	-0.6	-0.2	101.6	-52.8	97.7	i	0.86
CC1=NN(C(C#N)c2c(C)nn(Cc3ccccc3)c2C)C(C)(C)C1 (stereo unspecified)	·	3.9	102.3	·	·	i	1.04
CCn1c(SCC(=O)Nc2ccc(C)cc2)nc2nc3c(cc2c1=O)COC(C)(C)C3	·	·	104.9	·	·	i	0.96
COC(=O)c1c(NS(=O)(=O)Cc2ccccc2)sc2c1CCCC2	-3.2	-12.4	114.4	16.7	56.1	i	1.01
CCN(c1ccccc1)c1nc(=O)c2cccnc2s1	·	-3.5	104.5	·	·	i	0.99
CC(C)(C)c1ccc(OCC(=O)Nc2ccc3c4c(cccc24)C(=O)NC3=O)cc1	·	-1.8	96.3	·	·	?	·
COC(=O)c1cc(NC(=O)c2ccc(F)cc2)cc(C(=O)OC)c1	·	4.5	109.7	·	·	i	0.95
NS(=O)(=O)c1ccc(NC(=O)COC(=O)C2(c3ccccc3F)CCCC2)cc1	-0.1	0.8	104.6	·	·	i	0.89

Molecule	GALR2 ag	PKD1 inh	RGS16-Gao HTS	Insulin prom inh	Insulin prom inh cell count	HSV replic up	HSV replic up primary fold
O=C(NC1CCCCC1)c1ccc(S(=O)(=O)N2CCCCC2)cc1	-1.7	-18.0	100.1	37.5	89.5	i	0.92
FC(F)Oc1ccccc1/C=N/n1cnc2ccccc21	·	0.0	98.2	-50.0	128.0	i	0.84
Cn1nccc1C(=O)Nc1ccccc1C(=O)O	-1.9	-3.2	108.2	29.6	93.3	i	1.09
CCOC(=O)CSc1nnc(CNC(=O)c2ccccc2OC)n1-c1ccc(OC)cc1	-1.5	-11.7	115.0	·	·	·	·
CC(CCCC(C)(C)O)CC1C2=C(CCCC2=O)OC2=C1C(=O)CCC2 (stereo unspecified)	·	-3.8	107.0	66.7	178.7	i	0.91
Cc1cccc(OCCCc2c(C)n[nH]c2C)c1	-0.4	-7.8	103.4	·	·	i	0.91
CC(C)CC(=O)NS(=O)(=O)c1ccc(NC(=O)c2ccco2)cc1	·	2.1	117.7	-14.3	27.5	i	0.78
Clc1ccccc1-c1ccc(/C=N/Nc2nncc(-c3ccccc3)n2)o1	·	-3.6	109.8	-5.6	113.7	i	0.98
COc1ccccc1C(=O)N1CCC(N2CCN(c3ccccc3OC)CC2)CC1	·	·	104.4	·	·	i	0.99
O=C(COC(=O)/C(=C/c1cccs1)c1cccs1)NC(c1ccccc1)c1ccccc1	-1.0	-7.5	94.8	-2.7	134.1	i	0.88
CN(C)c1nc(N)nc(Cn2ccnc2)n1	-3.1	-12.2	102.4	30.0	63.9	i	0.95
CCOC(=O)c1ccccc1N/C=C1\CCCC1=O	-2.2	-6.6	97.3	·	·	i	0.84
Cc1c(Cl)cccc1Nc1nc(N)nc(CSc2ncccn2)n1	-0.1	1.3	98.5	-27.0	51.1	i	0.86
CCOc1cc(/C=C(\C#N)c2[nH]nc(N)c2C#N)ccc1O	-2.7	32.3	96.8	-29.2	100.7	i	0.87
CCOc1ccc(Oc2ccc(-c3nnc(-c4ccccc4)o3)cc2[N+](=O)[O-])cc1	-2.1	-4.7	120.8	·	·	·	·
COc1ccc(C(=O)N[C@H](C(=O)OCC(=O)NC(=O)c2cccn2C)C(C)C)cc1	-0.4	-2.7	102.2	·	·	i	1.03
Cc1ccc(O)c(NC(=S)NC(=O)CC(C)C)c1	-1.5	-11.3	107.2	0.0	130.5	i	1.1
Cc1cc(C)n(CC(C)C(=O)O)n1 (stereo unspecified)	·	-1.7	104.2	·	·	i	0.99
COc1cc(NS(=O)(=O)c2ccc(NC(=S)NC(=O)c3sc4ccccc4c3Cl)cc2)nc(OC)n1	-1.0	-5.7	102.7	35.3	93.6	i	0.94
Cc1ncc([N+](=O)[O-])n1Cc1ccc(F)cc1	·	4.3	96.8	14.3	89.3	i	0.86
COC(=O)C1=C(Cn2cnc3ccccc32)NC(=O)NC1c1cc(C)ccc1C (stereo unspecified)	2.5	-9.0	105.8	-22.1	176.3	i	1.01
Cc1ccccc1-c1nc2sc(-c3ccccc3)cc2c(=O)o1	0.3	4.8	109.1	8.9	125.4	i	0.81

# A few values from the list:
# O=C(NC1CCCCC1)c1ccc(S(=O)(=O)N2CCCCC2)cc1 in PKD1 inh → -18.0
# CC(C)CC(=O)NS(=O)(=O)c1ccc(NC(=O)c2ccco2)cc1 in Insulin prom inh → -14.3
